Bioassay records deposited in PubChem BioAssay by National Center for Advancing Translational Sciences (NCATS).
ClpP mod – qHTS Assay for Activators of ClpP. purified B. subtilis ClpP, FRET peptide cleavage, 20 min. Potency, µM (highest dose often 57.5 µM), for the others: at the highest dose activity change, negative = active. actives 1.9% (n = 340,000). AID 651965, 2013; active = well fitted falling curve with a large enough effect; inconclusive = small, poorly fitted or top-dose-only effect; inactive = no such curve, though single readings can be large or run the other way; further: the source files actives as falling curves though it sought activators and does not explain the sign; nearly all actives have a fitted effect of over 65% in size; many hits overshoot -100%
Target sequence (P80244 whole entry, looked up): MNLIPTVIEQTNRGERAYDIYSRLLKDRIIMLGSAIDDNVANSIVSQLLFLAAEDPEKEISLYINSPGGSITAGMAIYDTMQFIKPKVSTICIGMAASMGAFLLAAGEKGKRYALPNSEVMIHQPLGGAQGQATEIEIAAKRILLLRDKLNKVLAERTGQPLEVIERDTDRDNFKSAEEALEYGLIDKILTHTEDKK
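ClpP 10 microg/mL final, pH 8 Tris/KCl buffer with BSA, glycerol, Tween-20; compound pinned in; FRET-FV substrate; RT 20 min; Ex320/Em430; ΔFRET vs ADEP 5.8 microM, DMSO, no enzyme.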
* hit, by the source's call; ? = inconclusive. Potency means the concentration at half of the fitted maximal effect. Not all compounds are listed; rates above refer to the full screens.

Compound	ClpP mod
Nc1c(-c2nc(-c3ccccc3Cl)no2)nnn1-c1ccccc1F	3.1%
Cc1ccc(OCCCSc2nc(-c3ccc(C(C)(C)C)cc3)nc3cc(=O)[nH]n23)cc1C	-0.6%
CN1C(=O)c2ccccc2Sc2ccc(NC(=O)COc3ccc(Cl)cc3)cc21	-2.0%
Cc1ccc(OCC(=O)OCc2cc(=O)n3nc(-c4cccs4)sc3n2)cc1C	?
OC(C[n+]1c(Cl)ccc2ccccc21)c1ccccc1 (stereo unspecified)	4.6%
COc1cccc(CNS(=O)(=O)c2cc3[nH]c(=O)c(=O)[nH]c3cc2C)c1	4.6%
CCc1nc2ccccc2n2c(-c3ccc(C)cc3)c3c(=O)n(C)c(=O)n(C)c3c12	-15%
Cc1cc(C)n(-c2nc3ccccc3nc2Nc2ccc(Cl)c(C(=O)OC(C)C)c2)n1	-5.4%
COc1ccc(-c2csc(-c3c(N)c(C(=O)c4ccc(OC)c(OC)c4)n4ccccc34)n2)cc1	1.3%
CC1CCN(C(=O)c2cc3c(=O)n(C)c4ccccc4c3s2)CC1	-7.3%

Next section, overlapping the part above by 3 compounds.
Compound	ClpP mod
Cc1cc(C)n(-c2nc3ccccc3nc2Nc2ccc(Cl)c(C(=O)OC(C)C)c2)n1	-5.4%
COc1ccc(-c2csc(-c3c(N)c(C(=O)c4ccc(OC)c(OC)c4)n4ccccc34)n2)cc1	1.3%
CC1CCN(C(=O)c2cc3c(=O)n(C)c4ccccc4c3s2)CC1	-7.3%
CCN(CC)CCN(C(=O)c1ccco1)c1nc2cc(C)cc(C)c2s1	-5.8%
Cc1ccc(NC(=O)CN2C(=O)CCc3cc(S(=O)(=O)N4CCOCC4)ccc32)cc1N(C)C	-0.3%
CCOC(=O)c1ccc(NC(=O)c2c(NCc3cccc(OC)c3OC)sc3c2CCC3)cc1	-0.1%
Cc1ccc(C)c(N2CCN(C(=O)CN3C(=O)COc4ccc(S(=O)(=O)N5CCOCC5)cc43)CC2)c1	0.7%
COc1ccc2[nH]c(C)c(CCNS(=O)(=O)c3cc(F)ccc3OC)c2c1	0.6%
CCOCCCNC(=O)C1CCN(C(=O)c2cc3sccc3n2C)CC1	-2.0%
CCOC(=O)N1CCC(NC(=O)c2ccc3c(c2)N(Cc2ccccc2C)C(=O)c2ccccc2S3=O)CC1 (stereo unspecified)	-0.5%
O=C(NCc1cccnc1)c1nn(-c2ccccc2F)nc1CO	?
COc1ccc(NC(=O)C2=C(C)Nc3c(C(=O)Nc4ccc(C)cc4)cnn3C2c2cc(OC)ccc2OC)cc1 (stereo unspecified)	-23%
CCOC(=O)c1ccc2nc(C)cc(Nc3ccc(OC(C)C)cc3)c2c1	1.1%
CC[n+]1ccnc2ccccc21	?
CCOC(=O)c1sc(NC(=O)C2c3ccccc3Oc3ccccc32)c(C#N)c1C	?
CCc1cccc(NC(=O)C2CCC(CNS(=O)(=O)c3csc(C(N)=O)c3)CC2)c1 (stereo unspecified)	1.6%
O=C(NCc1ccc(Cl)cc1Cl)c1cccc(N2CCCS2(=O)=O)c1	-6.8%
COc1ccc(NC(=O)CCN2CCN(CCO)CC2)cc1	-4.2%
Cc1ccc(OCCSc2nc3ccccc3n2CC(=O)N2CCCCC2)c(C)c1	-0.4%
O=C(c1ccc2c(Cl)c3c(nc2c1)CCCC3)N1CCN(c2cccc(C(F)(F)F)c2)CC1	-4.1%
Cc1sc2c(c1C)c(=O)n(-c1cccc(C(F)(F)F)c1)c(=O)n2Cc1ccccc1C#N	1.2%
COc1cccc(CNC(=O)c2cnc(N3CCCC3)nc2C)c1	-25%
Cc1ccc2c(c1)c1c(c(=O)n(-c3cccc(Cl)c3)c(=O)n1CC(=O)c1ccc(Cl)cc1)n2C	-2.1%
N#Cc1c(-n2ncnc2-c2ccccc2C(F)(F)F)sc2c1CCCCC2	-0.4%
O=C(Nc1cccc(Cl)c1)C(Cc1ccccc1)n1cccc1 (stereo unspecified)	-0.3%
Cc1c(C(=O)NCc2ccccc2Cl)sc2nc3n(c(=O)c12)CCCCC3	-12%
O=C(CSc1nc2c(c(=O)[nH]1)CN(Cc1ccc3c(c1)OCO3)CC2)Nc1ccc(F)cc1	2.4%
COc1cc2nc(N3CCCN(C)CC3)nc(NC3CCCCC3)c2cc1OC	4.5%
O=C(CSc1nc(-c2ccco2)nc2cc(=O)[nH]n12)Nc1ccc(F)cc1	1.6%
Cc1ccc(NC(=O)CSc2nnc(N)s2)c(C)c1	-1.3%
Cc1ccc(CN(Cc2ccco2)C(=O)c2oc3ccc(C)cc3c2C)cc1	0.0%
CCC(C(=O)Nc1ccccc1OC)n1c(C(=O)OC)cc2sc(Cl)cc21 (stereo unspecified)	-3.9%
O=C(Nc1nc2n(n1)C(c1ccc(F)cc1)C=C(c1ccccc1)N2)c1ccco1 (stereo unspecified)	4.9%
COc1ccc(Nc2oc(/C=C/c3ccc(OC)c(OC)c3)nc2C#N)cc1	?
Cc1nc2c(C(=O)NCc3ccccc3Cl)c[nH]n2c(=O)c1Cc1cccc(Cl)c1	3.8%
CC(=O)N(Cc1cccnc1)c1nc2c(C)c(C)ccc2s1	-0.1%
CCNC(=O)c1c(NC(=O)c2nc(SCC)ncc2Cl)sc2c1CCCC2	-4.1%
CCC(=O)N1CCc2cc(Br)cc(S(=O)(=O)N3CCCC(C(=O)NCc4ccc(C)cc4)C3)c21 (stereo unspecified)	0.7%
COc1ccc(CCn2c(=O)c3cccnc3n(CC(=O)Nc3ccc(C)cc3C)c2=O)cc1OC	-19%
Cc1ccc(C(=O)N2c3ncnn3C3(CCCCC3)[C@@H]3CCCC[C@@H]32)cc1	0.0%
Cc1ccc(-n2nnnc2C2CCN(S(=O)(=O)c3ccc(OC(F)(F)F)cc3)CC2)cc1	1.2%
CC1=C(c2ccc(C)c(C)c2)S(=O)(=O)N=C1N1CCC(C(=O)NCc2ccccc2C)CC1	3.0%
CCOC(=O)c1cccc2c1N[C@@H](c1ccc(F)cc1)[C@H]1CC=C[C@@H]21	4.8%
O=c1c2cc3c(cc2n(Cc2ccc(Cl)cc2)c(=O)n1Cc1nc(-c2ccccc2)no1)OCO3	-18%
COCCNc1sc(S(=O)(=O)c2ccc(C)cc2)nc1S(=O)(=O)c1ccc(C)cc1	-1.5%
Cc1ccc(-c2nc3c4c(-c5ccccc5)c(-c5ccccc5)oc4ncn3n2)cc1	-12%
Cc1c(Cl)cccc1NC(=O)c1ccc2c(c1)nnn2C1CCCC1	-4.1%
Cc1ccc(CN2C(=O)c3ccccc3Sc3ccc(C(=O)NC4CCCCC4)cc32)cc1	-8.2%
COc1ccc(CNC(=O)c2ccc(-c3nc(CSc4ccccc4)c(C)o3)cc2)cc1OC	-14%
CC(=O)N1CCC(C(=O)Nc2nnc(C(C)C)s2)CC1	-1.8%
CCN(C(=O)c1oc2ccc(S(=O)(=O)N3CCCCCC3)cc2c1C)c1ccccc1	-0.1%
CC(=O)Nc1ccc(NC(=O)c2c(C)nn(-c3ccccc3)c2-n2cccc2)cc1	-3.3%
Cc1oc2ncnc(N3CCCCC3)c2c1C(=O)Nc1cccc(Cl)c1C	0.9%

Carrying on.
Compound	ClpP mod
Cc1ccc(Cl)cc1N1CCN(C(=O)C2CCN(Cc3nc(-c4cccc(Cl)c4)oc3C)CC2)CC1	-5.2%
COc1cc2c(-c3cc(Br)ccc3O)nc3c(c(C)nn3-c3ccccc3)c2cc1OC	?
CN(C)c1ccc(/C=C2/CCCc3c2nc2ccccc2c3C(=O)O)cc1	-7.4%
Cc1ccc(NC(=O)c2oc3ccc(S(=O)(=O)N4CCCCC4)cc3c2C)c(C)c1	7.2%
Cc1ccc(Cl)cc1N1CCN(C(=O)CSc2cc(=O)n(C)c3ccccc23)CC1	-27%
CN(C)c1ccc(N=Nc2ccccc2C(=O)O)cc1	-6.3%
COc1ccc(-c2cn3c(n2)sc2cc(C(=O)NCc4cccs4)ccc23)cc1	4.8%
O=C(C1CCN(S(=O)(=O)Cc2ccccc2)CC1)N1CCN(c2ccccc2)CC1	1.1%
Cc1cccc(-n2c(C)nnc2SCC(=O)NC(C)c2ccco2)c1 (stereo unspecified)	-1.7%
O=C(Cn1ccc2cc(S(=O)(=O)N3CCCCC3)ccc21)NCCc1ccccc1Cl	-10%
COc1ccc(Cl)cc1-n1c(/C=C/c2cccc3ccccc23)nc2ccccc2c1=O	0.4%
CCCC(=O)Nc1cc2nn(-c3ccc(OC)cc3)nc2cc1C	3.9%
CC1Cc2cc(S(=O)(=O)CCC(=O)Nc3ccc(F)c(Cl)c3)ccc2N1C(=O)C1CC1 (stereo unspecified)	-2.1%
CC(=O)N1c2ccccc2CC1C(=O)N1CCN(c2cc(Cl)ccc2C)CC1 (stereo unspecified)	1.8%
COc1ccc(-n2c(Cc3ccccc3)nnc2SCc2nc(-c3ccccc3C)no2)cc1	-2.7%
C(=Nc1ccc(/C=C/c2ccnc3ccccc23)cc1)c1ccc2c(c1)OCO2	-8.6%
Cc1noc(-c2ccc(N3CCCCC3C)c([N+](=O)[O-])c2)n1 (stereo unspecified)	-0.6%
CC(C)NC(=O)c1cnc2sc(N3CCCCCC3)nn2c1=O	16µM*
Cc1cccn2cc(-c3cccc(NC(=O)C(C)C)c3)nc12	4.0%
Cc1ccc(CNC(=O)Cn2ccn(-c3ccc(C)c(C)c3)c(=O)c2=O)cc1	?

(listing goes on)
canonical_smiles | ClpP mod
COc1ccc(-c2noc(N3CCN(c4cccc(Cl)c4)CC3)n2)cc1OC | -3.0%
CCOC(=O)c1c(C)oc2ncnc(N3CCN(c4cccc(Cl)c4)CC3)c12 | -2.6%
O=C(COc1ccccc1Cl)N(Cc1cccc(F)c1)C1CCS(=O)(=O)C1 (stereo unspecified) | -3.7%
COc1cc(NC(=O)C2CCN(S(=O)(=O)c3c(C)noc3/C=C/c3c(C)cc(C)cc3C)CC2)cc(OC)c1 | -3.5%
Cc1cccc(C)c1NC(=O)c1ccc2c(c1)nnn2C1CCCC1 | -1.7%
COc1ccc(-n2c(SCC(=O)c3ccc(Cl)cc3)nc3c([nH]c4ccccc43)c2=O)cc1 | -3.4%
Cc1nc(C)c(-c2ccc(SCC(=O)Nc3ccccc3F)nn2)s1 | 2.6%
N#Cc1ccc(NS(=O)(=O)c2ccc(-c3cnc(C4CC4)o3)cc2)cc1 | -3.8%
COc1ccc(OC)c(NC(=O)C2CCN(S(=O)(=O)c3ccc4c(c3)CCCC(=O)N4)CC2)c1 | -0.1%
CCCCNc1nc2c(S(=O)(=O)c3ccc(Br)cc3)nnn2c2ccsc12 | ?
COc1cccc(C(=O)Nc2ccccc2C(=O)OCc2cc(=O)n3nc(C4CC4)sc3n2)c1 | -4.1%
O=C(Cn1c(=O)oc2cc(S(=O)(=O)NCc3ccccc3)ccc21)Nc1ccc(F)c(Cl)c1 | -0.6%
COc1cccc(/C=C/c2nccc3ccccc23)c1OC | -18%
Cc1coc2cc3oc(=O)c(CC(=O)NCCc4ccccc4F)c(C)c3cc12 | 4.2%
CN(C(=O)CC(=O)Nc1ccc2nc3n(c(=O)c2c1)CCCCC3)c1ccccc1F | -21%
COc1cccc(CNC(=O)c2nnc(Cc3ccc(Cl)cc3)o2)c1 | 1.4%
Cc1cc(C)cc(Nc2cc(C(=O)NC3CCCCC3)c3ccccc3n2)c1 | -7.7%
CCOC(=O)C1=C(CN2CCC(C)CC2)NC(=O)NC1c1ccc(OC(C)C)cc1 (stereo unspecified) | 0.8%
COc1cccc(CNC(=O)Cn2c(=O)ccc3cc(S(=O)(=O)N4CCC(C)CC4)ccc32)c1 | -6.9%
COc1ccc(N2CCN(c3oc(/C=C/c4cccc(OC)c4)nc3C#N)CC2)cc1 | 1.0%
COc1ccccc1N1CCN(C(=O)Cn2ncc3c(=O)oc4ccccc4c32)CC1 | -1.1%
CCOC(=O)c1cc(-c2ccccc2)n(CCC(=O)Nc2ccc(Cl)c(C(F)(F)F)c2)c1C | -5.2%
COc1ccc(-c2noc(CSc3nnc(Cc4ccccc4)n3-c3cccc(C)c3)n2)cc1 | 1.3%
Cn1c(=O)c2c(c3ccccc31)OC(=O)CC2c1cccc(Cl)c1 (stereo unspecified) | 11µM*
CCOC(=O)c1c(NC(=O)c2cc3ccccc3c(=O)o2)sc2c1CCC(C(C)(C)C)C2 (stereo unspecified) | 0.7%
Cc1ccc(S(=O)(=O)N2CCN(c3nc(-c4cccs4)nc4c3ncn4COC(=O)C(C)(C)C)CC2)cc1 | ?
COC(=O)c1ccc(OC)c(Cn2c(=O)n(-c3cccc(Cl)c3)c(=O)c3c2c2cc(C)ccc2n3C)c1 | 4.2%

In the list so far, eleven have a furan ring, fused or not.
canonical_smiles | ClpP mod
CCN(CC)CCN(C(=O)c1ccco1)c1nc2cc(C)cc(C)c2s1 | -5.8%
O=C(CSc1nc(-c2ccco2)nc2cc(=O)[nH]n12)Nc1ccc(F)cc1 | 1.6%
Cc1ccc(CN(Cc2ccco2)C(=O)c2oc3ccc(C)cc3c2C)cc1 | 0.0%
O=C(Nc1nc2n(n1)C(c1ccc(F)cc1)C=C(c1ccccc1)N2)c1ccco1 (stereo unspecified) | 4.9%
Cc1ccc(-c2nc3c4c(-c5ccccc5)c(-c5ccccc5)oc4ncn3n2)cc1 | -12%
CCN(C(=O)c1oc2ccc(S(=O)(=O)N3CCCCCC3)cc2c1C)c1ccccc1 | -0.1%
Cc1oc2ncnc(N3CCCCC3)c2c1C(=O)Nc1cccc(Cl)c1C | 0.9%
Cc1ccc(NC(=O)c2oc3ccc(S(=O)(=O)N4CCCCC4)cc3c2C)c(C)c1 | 7.2%
Cc1cccc(-n2c(C)nnc2SCC(=O)NC(C)c2ccco2)c1 (stereo unspecified) | -1.7%
CCOC(=O)c1c(C)oc2ncnc(N3CCN(c4cccc(Cl)c4)CC3)c12 | -2.6%
Cc1coc2cc3oc(=O)c(CC(=O)NCCc4ccccc4F)c(C)c3cc12 | 4.2%
